Mtb H37Rv: Mycobacterium tuberculosis H37Rv growth inhibition, cell based, confirmatory dose response (AID 1949). most inactive calls were filed without a number and no value below 0 was filed. actives 1.6% (n = 100,000). inhibition, % at 10 µg/mL; hits with a dose series show IC50 in µg/mL;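 active means confirmed in a dose series; inconclusive means about 50% or more but not retested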;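 further: bacteria grown 7 days with compound before Alamar blue readout; 0% = untreated bacteria and 100% = reference antibiotic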
* hit, by the source's call; i = inactive; u = inconclusive.

structure	Mtb H37Rv
Fc1ccc(NC(=S)N2CCC3(CC2)OCCO3)c(F)c1	i
O=c1oc2ccc(Cl)cc2cc1-c1nnc(-c2cccc(F)c2)o1	8%
O=C(CCn1nc(-c2ccc(Cl)cc2)c2ccccc2c1=O)NCC1CCCO1 (stereo unspecified)	2%
Cc1ccccc1/C=C(\C#N)c1nc2ccccc2[nH]1	35%
CC(C)(C)NCC(O)COCc1ccc(Cl)cc1 (stereo unspecified)	4%
COC(=O)c1ccc(OC(=O)c2cc(Cl)ccc2Cl)cc1	3%
COc1ccc(C(=O)Nc2ccc(N3CCN(C(=O)c4ccc(C)cc4)CC3)cc2)cc1	i
CCc1cc(C(=O)OC)c(NC(=S)Nc2ccc(S(=O)(=O)NC34CC5CC(CC(C5)C3)C4)cc2)s1	i
O=C(Oc1ccccn1)C1COc2ccccc2O1 (stereo unspecified)	2%
O=C(CN(c1cccc(Cl)c1)S(=O)(=O)c1ccc(Cl)cc1)N1CCOCC1	4%
CCC(=O)Nc1ccccc1Nc1cc(C#N)c(C#N)cc1[N+](=O)[O-]	i
CCOC(=O)c1c(N)sc(C(=O)N2CCCCC2)c1C	5%
CSc1cccc(NC(=S)N(C)C)c1	i
CNC(=O)CSCc1cc(C)cc(C)c1	i
O=C(c1cccnc1)N1CCN(Cc2ccccn2)CC1	i
CCSc1nnc(-c2ccc(C)cc2)c2ccccc12	i
COc1ccc(C(=O)N2CC3(C)CN(C(=O)c4ccc(OC)cc4)CC(C)(C2)C3=O)cc1	i
Cc1ccc(NC(=O)c2ccc(OC(=O)c3ccc([N+](=O)[O-])cc3)cc2)cc1	28%
CCOc1c(Cl)cc(C(=O)Nc2c(C)cccc2C)cc1Cl	i
CN1C(=O)C(O)(C2OC(C)(C)CCC2=O)c2ccccc21 (stereo unspecified)	i
O=C(Nc1ccc(Br)cc1)C1CC(=O)N(C2CCCCC2)C1 (stereo unspecified)	i
CN(CC(=O)NCCC1=CCCCC1)S(=O)(=O)c1ccc2ccccc2c1	i
O=C(CCn1nc(-c2ccccc2)c2ccccc2c1=O)NN1CCOCC1	i
COCCNc1ncnc2c1cnn2-c1cccc(C)c1	i
CCOC(=O)c1c(NC(=O)Cn2nnc3sc4c(c3c2=O)CCCC4)sc2c1CCCC2	2%
Cc1coc2c(C)c3oc(=O)c4c(c3cc12)CCC4	i
O=C(Nc1ccccc1OC(F)F)c1cccnc1	i
CCc1ccc(OCC(=O)Nc2ccc(N3CCN(C(=O)c4cccs4)CC3)c(Cl)c2)cc1	2.9µg/mL*
COC(=O)c1c(NC(=O)c2cccnc2)sc(C(=O)N(C)C)c1C	i
O=C1N(Cc2ccccc2)c2ccc(Cl)cc2C1(O)c1c[nH]c2ccccc12 (stereo unspecified)	u

For reference, part of the list above.
structure	Mtb H37Rv
Fc1ccc(NC(=S)N2CCC3(CC2)OCCO3)c(F)c1	i
O=c1oc2ccc(Cl)cc2cc1-c1nnc(-c2cccc(F)c2)o1	8%
O=C(CCn1nc(-c2ccc(Cl)cc2)c2ccccc2c1=O)NCC1CCCO1 (stereo unspecified)	2%
Cc1ccccc1/C=C(\C#N)c1nc2ccccc2[nH]1	35%

Looked up one by one from above (five):
structure	Mtb H37Rv
Cc1ccc(NC(=O)c2ccc(OC(=O)c3ccc([N+](=O)[O-])cc3)cc2)cc1	28%
CN1C(=O)C(O)(C2OC(C)(C)CCC2=O)c2ccccc21 (stereo unspecified)	i
Cc1coc2c(C)c3oc(=O)c4c(c3cc12)CCC4	i
CCOc1c(Cl)cc(C(=O)Nc2c(C)cccc2C)cc1Cl	i
O=C(Nc1ccc(Br)cc1)C1CC(=O)N(C2CCCCC2)C1 (stereo unspecified)	i

(list continues)
structure	Mtb H37Rv
CCCCSc1nc(C)c(I)c(=O)[nH]1	i
CC(Nc1n[nH]c(=O)[nH]c1=O)C(=O)N/N=C/c1c(F)cccc1Cl (stereo unspecified)	i
CN(CC(N)=O)S(=O)(=O)c1ccc(Cl)cc1	i
Cc1ccc2c(c1)CCCN2C(=O)c1c(-c2ccccc2)noc1C	2%
CCN(c1ccccc1)S(=O)(=O)c1ccc(=O)[nH]c1	i
COc1ccc(CCNc2ncnc3scc(-c4cccs4)c23)cc1OC	4%
O=C(CN(c1cc(Cl)ccc1Cl)S(=O)(=O)c1ccccc1)N1CCOCC1	0%
COc1cccc(S(=O)(=O)Nc2ccc(C(=O)N3CCOCC3)cc2)c1	i
CCOC(=O)N1CCN(C(=S)Nc2ccc(F)cc2)CC1	i
COc1ccc(Cc2nc(SCC(=O)N3CCN(c4ccccc4)CC3)n[nH]2)cc1	i
COC(=O)c1cc(S(=O)(=O)N(C)C)c(Cl)cc1Cl	i
Cc1ccccc1C(=O)Nc1cccc(NC(=S)NC(=O)CCc2ccccc2)c1	i
COc1ccc(NC(=O)NNC(=S)NC2CCCCC2)cc1OC	2%
O=C(NCCCc1ccccc1)C1CC1c1ccccc1 (stereo unspecified)	2%
O=C(CSc1nnc(-c2ccco2)o1)N1c2ccccc2CCc2ccccc21	2%
CCOC(=O)N1CCN(C(=O)C(C)Oc2ccc(Br)cc2)CC1 (stereo unspecified)	i
COC(Cc1nc2ccccc2s1)C(=O)O (stereo unspecified)	i
CCn1c(SCC(=O)NCc2ccco2)nnc1-c1ccc(Cl)cc1	i
O=S(=O)(c1cccs1)N1CCCCCC1	i
CCc1c(C)sc(NC(=S)N2CCN(Cc3cnn(CC)c3C)CC2)c1C(=O)OC	29%
O=C1N(Cc2ccccc2Cl)c2ccc(Cl)cc2C1(O)c1c[nH]c2ccccc12 (stereo unspecified)	3µg/mL*
CCOC(=O)C1=C(C)NC(=O)NC1c1ccc(OC)c(COc2ccccc2F)c1 (stereo unspecified)	i
Cc1nc(N2C(=O)C(O)=C(C(=O)c3cccs3)C2c2ccc(Cl)c(Cl)c2)sc1C (stereo unspecified)	i
COC(=O)COc1ccc(Oc2nc(N(C)C)nc(N3CCOCC3)n2)nn1	i
O=C(CCC(=O)Nc1ccccc1Cl)NNC(=S)Nc1ccc(Cl)c(Cl)c1	i
Cn1cccc1C1C2=C(CC(C)(C)CC2=O)Nc2ccccc2N1C(=O)Cc1ccccc1 (stereo unspecified)	i
COc1ccc2nc(NC(=O)CCC3CCCCC3)sc2c1	1%
O=C(NCC(=O)N1CCCCCC1)c1ccc(Br)cc1	1%
COc1ccc(CNC(=O)C(=O)NCCCn2ccnc2)cc1	1%
CCOc1ccc(NC(=O)CSc2nnc(-c3ccccc3)n2-c2ccc(OC)cc2)cc1	i
COc1cccc(C(=O)Nc2ccc(N3CCN(C(=O)c4ccccc4)CC3)c(Cl)c2)c1	i
Cn1c(=O)c2c(nc(Oc3ccccc3)n2C)n(C)c1=O	i
CCOc1ccc(C(=O)Nc2sc(C)c(C)c2C(=O)OC)cc1	i
O=C(CCN1C(=O)c2cccc3cccc(c23)C1=O)Nc1ccon1	i
FC(F)(F)c1cccc(NC(=S)Nc2ccccc2Sc2ccccc2)c1	i
CCc1ccc(S(=O)(=O)Nc2cccc(-c3cn4ccsc4n3)c2)cc1	2%
COC(=O)C1=CN(C(C)C)C=C(C(=O)OC)C1c1cccc(Cl)c1	i
COc1ccc(S(=O)(=O)N(CC(=O)Nc2cccc3ccccc23)c2ccccc2)cc1OC	i
Cc1ccc(C(=O)Nc2ccccc2C(=O)Nc2ccccc2)cc1I	i
CC(C)Cc1nc(SCC(=O)NCc2ccccc2)n[nH]1	i
Cc1ccc(N2C(=O)C(Cl)=C(N3CCN(c4ccccc4)CC3)C2=O)c(C)c1	i
Cc1cccnc1NC(=S)NC(=O)c1cncc(Br)c1	7%
Cc1ccc(C(=O)Nc2cccc(F)c2)cc1[N+](=O)[O-]	2%
COc1cc([N+](=O)[O-])ccc1NC(=O)C(C)Oc1cccc(Cl)c1 (stereo unspecified)	i
CCOC(=O)c1c(-c2ccccc2)csc1NC(=O)COc1ccccc1	5%
CCCCC(=O)NC(=S)Nc1ccc(NC(=O)c2ccccc2Cl)c(OC)c1	12%
Cc1ccc(C(=O)Nc2cnc3ccccc3c2)cc1	i
COc1cc(CNC(C)c2ccccc2)ccc1OCc1ccc(F)cc1 (stereo unspecified)	i
COc1c(Cl)cc(Cl)cc1C(=O)Nc1ccc(-c2nn3c(C)nnc3s2)cc1	1%
NC1=NN=C(c2ccc([N+](=O)[O-])cc2)CS1	5%
Fc1ccccc1CSc1nnc(-c2cccnc2)n1-c1ccc(Br)cc1	i
COc1cccc(-c2cc(C(F)(F)F)n3ncc(C(=O)OC(C)C)c3n2)c1	i
Cc1c(Cl)cccc1NC(=O)C1CCN(S(=O)(=O)c2ccc(Cl)cc2)CC1	i
O=C(O)CCC(=O)Nc1cccc(C(=O)N2CCCCC2)c1	i
CSc1nc(-c2ccco2)nn1C(=O)c1cccs1	2%
COc1cccc(CNC(C)C(O)c2ccccc2)c1 (stereo unspecified)	i
CCCOc1cc(C)cc2oc(=O)cc(C)c12	i
CC(=O)Nc1ccc(N(CC(O)Cn2c3ccccc3c3ccccc32)S(C)(=O)=O)cc1 (stereo unspecified)	i
CC(C)Cn1c(C=O)nc2ccccc21	i
COCCn1c(CCc2ccccc2)nnc1SCC(=O)Nc1ccc(Br)cc1C(F)(F)F	i

Next section:
structure	Mtb H37Rv
COc1nnc(-c2ccc(N3CCOCC3)c(NC(=O)c3ccco3)c2)c2ccccc12	2%
CC(C)(C)c1ccccc1OCC(O)CN1CCN(c2ccccn2)CC1 (stereo unspecified)	4%
CCc1ccc(CC)c(S(=O)(=O)Nc2ccc(O)c(C(=O)O)c2)c1	20%
O=C(COc1ccc(Cl)cc1)NNC(=O)C1COc2ccccc2O1 (stereo unspecified)	i
Cc1occc1C(=O)O/N=C(\N)c1ccc(Cl)cc1	i
COc1ccc(Nc2ncnc3c2cnn3Cc2ccc(C)cc2)cc1	23%
CCN(Cc1ccccc1)C1CCN(CC2CC3C=CC2C3)CC1 (stereo unspecified)	i
O=C(NC1CCS(=O)(=O)C1)c1sc2ccccc2c1Cl (stereo unspecified)	i
CN(C)C(=S)NC(=O)c1cccc(Cl)c1	4.6µg/mL*
COc1cc(CN2CCN(S(=O)(=O)c3ccc(Cl)cc3)CC2)cc(OC)c1OC	i
CSc1cccc(NC(=O)CSc2nnc(-c3cc(Br)ccc3O)n2C)c1	i
COc1ccc(N2CCN(C(=O)C(C)Oc3ccc(C(C)(C)C)cc3)CC2)cc1 (stereo unspecified)	1%
Cc1ccc(-c2nc(-c3ccc(Cl)cc3Cl)no2)cc1C	i
CCCCCNC(=O)c1ccc(N(Cc2ccc(C)cc2)S(C)(=O)=O)cc1	i
Cc1ccc(-c2cc(C(F)F)n3ncc(C(=O)n4c(C)nc5ccccc54)c3n2)cc1	1%
CCOC(=O)N1CCN(S(C)(=O)=O)CC1	i
OCCNCCCOc1ccc(Br)cc1Cl	1%
CN1CCN(C(=S)Nc2ccc(Oc3ccccc3)cc2)CC1	i
COc1ccc(OCCCN2CC(C)OC(C)C2)cc1 (stereo unspecified)	i
N#Cc1c(NC(=O)c2cc(S(=O)(=O)N3CCOCC3)cs2)sc2c1CCCC2	i
CC1(C)CC(NC(=O)c2cc(Br)ccc2Cl)CC(C)(C)N1	i
CCc1ccc(NC2CC(=O)N(c3ccccc3Cl)C2=O)cc1 (stereo unspecified)	i
CCCCOc1ccc(C(=O)NC(=S)Nc2ccc3[nH]c(=O)[nH]c3c2)cc1	i
Cc1cc(C)c(N/C(=N\S(=O)(=O)c2ccccc2)C(F)(F)F)c(C)c1	5%
Cn1cnnc1SCC(=O)N1CCCCC1	i
Cc1cc(C)nc(Nc2ccc(N3CCCC3)cc2)n1	9.7µg/mL*
COc1ccc(N(C(=O)Cc2ccccc2)c2nc(-c3ccc(Cl)cc3)c(C)s2)c(OC)c1	2%
COc1cccc(C(=O)COc2cccc(NC(=O)c3cccc([N+](=O)[O-])c3)c2)c1	i
Cc1nn(C(C)(C)C)c(OC(=O)c2ccc(Br)o2)c1Sc1ccccc1	i
Cc1ccc(OCC(=O)Nc2ccc3oc(-c4ccccc4C)nc3c2)cc1C	i
COc1cc(NC(=O)CCCC(=O)OCC(F)(F)C(F)F)nc(OC)n1	5%
COc1ccc(N)cc1NS(=O)(=O)c1ccc(Cl)c(Cl)c1	i
CCc1cccc(CC)c1NC(=O)COc1cccc(Cl)c1	i
Cc1ccccc1NC(=O)CSc1nnc(-c2ccc([N+](=O)[O-])cc2)n1Cc1ccccc1	i
Cc1cc(C)nc(Sc2nnc(-c3ccccc3)c3ccccc23)n1	i
COc1ccc(NC(=S)Nc2ccc(C)cc2C)c(OC)c1	i
Cc1cc(C)nc(N/C(=N/C(=S)Nc2ccccc2)N2CCCCC2)n1	i
O=C1C=CC(=O)C(c2cc(Cl)ccc2Cl)=C1	0%
Cc1cc(C)n(-c2cc(N3CCN(C(=O)C(C)(C)C)CC3)ccc2[N+](=O)[O-])n1	6%
S=c1[nH]nc(-c2ccccc2Cl)n1CC1CCCO1 (stereo unspecified)	i
O=C(Nc1ccc(S(=O)(=O)N2CCCCCC2)cc1)c1ccc(Cl)c(S(=O)(=O)N2CCOCC2)c1	1%
Cn1c(SCc2ccc([N+](=O)[O-])cc2)nnc1-c1cccs1	i
COc1ccccc1C(=S)N1CCN(C(c2ccccc2)c2ccccc2)CC1	6%
CCOC(=O)c1ccc(NC(=O)CSc2nnc(C)n2-c2ccccc2)cc1	i
O=[N+]([O-])c1ccccc1OCCNCc1ccccc1	i
O=C(CN1CCOCC1)NCCNC(=O)CN1CCOCC1	i
O=C(O)C(Sc1cnc2ccccc2n1)c1ccccc1 (stereo unspecified)	i

Screens (PubChem BioAssay)

Only part of the results is shown, so the mix of outcomes need not match the whole.
